Bioassay records: PubChem BioAssay, several laboratories
FGF22 binding: binders of recombinant human FGF22 by thermal shift; calls only at 9.99 µM; SYPRO orange fluorescence; percent of sucrose octasulfate shift, DMSO zero; Q9HCT0; actives 1.5% (n = 340,000);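 active = melting point raised past a set limit in the mean and every replicate; three in four hits are not shown here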
Target sequence (Q9HCT0 whole entry, looked up): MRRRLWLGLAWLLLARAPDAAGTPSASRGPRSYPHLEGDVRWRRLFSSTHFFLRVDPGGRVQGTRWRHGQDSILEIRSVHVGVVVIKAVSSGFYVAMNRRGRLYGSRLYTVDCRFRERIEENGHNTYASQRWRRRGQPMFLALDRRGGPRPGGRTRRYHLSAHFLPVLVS
AF4-AF9 inh: MLL-AF4/AF9 protein interaction inhibition. P42568. AlphaScreen, biotin-AF4 peptide binding to FLAG-AF9. inhibition, % at 10 µM. actives 0.47% (n = 350,000). AID 651704;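 active = every replicate reaching a set inhibition limit, whatever the replicate mean, cut at about 25% in these data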;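 also: 0% = plate neutral control median and 100% = total signal loss; the record names both 10 and 1 µM as test concentration; the first replicate is given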
rRNA inh HTS: inhibitors of bacterial rRNA selective over humanized ribosomes; GFP signal change (wild-type ribosome), % (no concentration beside the values); AID 720706; actives 1.6% (n = 350,000); E. coli WT GFP vs humanized-ribosome RFP mutants, fluorescence, 24 h; stronger effect = lower value; DMSO median 0, no signal -100;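 active = significant combined selectivity score with lowered wild-type GFP, culture density cut under 30%, mutant RFP and density less affected; inactive = any of these conditions unmet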; also: one replicate is shown; some compounds called inactive have numbers as strong as hits
E coli growth: E. coli growth inhibition; Escherichia coli growth, OD600, 23 h; stronger effect = lower value; OD600 absorbance (no concentration beside the values); actives 0.21% (n = 330,000); AID 1053175;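 active = OD600 absorbance below the run mean of sample wells minus 3.6 SD, in any replicate, cut at about 0.56 in these data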;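 also: stock transfer was 300 nL into about 60 µL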
Vif TR-FRET: inhibitors of Vif binding to APOBEC3G peptide, primary screen, biochemical, TR-FRET, GST-Vif 1-94, biotin-A3G peptide, dose response retest (AID 1117319) | actives 0.57% (n = 260,000) | one-dose inhibition, %; IC50 in µM for titrated hits | TR-FRET GST-Vif / biotin-A3G peptide binding; higher % means a stronger effect; test concentration not given here; strong numbers were not always called active;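 active = above the screen mean plus three standard deviations and confirmed in dose response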;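 also: Vif residues 1-94 fused to GST binding biotinylated APOBEC3G peptide 110-148; 0% = full assay without inhibitor and 100% = GST in place of GST-Vif; retest series ran down from 100 µM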
HNF4A DNA FP: change in binding of human HNF4 alpha to DNA; P41235; HNF4a-FITC DNA binding, fluorescence polarization, 1 h; activity change, % at 10 µM; actives 0.3% (n = 360,000); AID 1224865; in the data active = activity change above about 30%, passing the limit was not always enough;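 also: controls were the assay level and a saturating level of protein; the project sought stronger binding though the title names inhibitors; some compounds called inactive have numbers as strong as hits; positive values seem to mean higher polarization but the record does not say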
Target sequence (P41235 whole entry, looked up): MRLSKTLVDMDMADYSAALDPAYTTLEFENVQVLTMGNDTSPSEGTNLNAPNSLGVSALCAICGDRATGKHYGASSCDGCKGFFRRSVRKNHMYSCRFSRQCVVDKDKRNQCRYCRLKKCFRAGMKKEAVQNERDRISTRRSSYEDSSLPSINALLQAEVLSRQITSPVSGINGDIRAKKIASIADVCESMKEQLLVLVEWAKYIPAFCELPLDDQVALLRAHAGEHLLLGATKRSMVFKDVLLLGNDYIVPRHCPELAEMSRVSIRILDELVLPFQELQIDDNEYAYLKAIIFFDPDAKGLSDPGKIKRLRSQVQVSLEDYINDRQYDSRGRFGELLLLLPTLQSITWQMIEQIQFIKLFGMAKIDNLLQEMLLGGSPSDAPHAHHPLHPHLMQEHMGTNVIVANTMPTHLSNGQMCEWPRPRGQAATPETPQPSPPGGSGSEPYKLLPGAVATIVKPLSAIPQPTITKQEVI
ALR H2O2 inh: human ALR oxidase inhibition via reduced H2O2; P55789; purified ALR, DTT oxidation, H2O2 HRP-luminol luminescence; inhibition, % (no concentration beside the values); actives 3.8% (n = 290,000);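 active = mean and each replicate at 75% or more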;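 also: stock transfer was 7.5 nL into about 7.5 µL; 0% = neutral wells and 100% = wells with inactivated enzyme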
Target sequence (P55789 whole entry, looked up): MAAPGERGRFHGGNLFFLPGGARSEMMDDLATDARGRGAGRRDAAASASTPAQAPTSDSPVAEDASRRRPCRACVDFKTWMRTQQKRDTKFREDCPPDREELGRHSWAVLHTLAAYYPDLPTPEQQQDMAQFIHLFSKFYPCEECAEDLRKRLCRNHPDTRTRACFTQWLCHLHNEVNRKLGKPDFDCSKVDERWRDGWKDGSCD
rRNA inh HTS OD600: recorded beside rRNA inh HTS, whose call it bears; OD600 change, %; measured here: OD600 growth;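 optical density of the mix in the first replicate; 0 = DMSO median and -100 = no signal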
rRNA inh HTS RFP: further read-out of rRNA inh HTS, marked with its call; RFP signal change, %; measured here: RFP humanized mutant strains;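 first replicate; 0 = DMSO median and -100 = no signal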
The depositor's hits bear a star; i = inactive; . = no result given. Only part of the results is shown; rates above refer to the full screens.

SMILES	FGF22 binding	AF4-AF9 inh	rRNA inh HTS	rRNA inh HTS OD600	rRNA inh HTS RFP	E coli growth	Vif TR-FRET	HNF4A DNA FP	ALR H2O2 inh
COC(=O)c1ccc(N)nc1	i	-1.7	20	20	0.2	0.67	-6%	4.7	3
CCCNC(=O)C[C@H]1CC[C@@H]2[C@H](COC[C@H](O)CN2C(=O)Nc2ccc(Cl)c(Cl)c2)O1	i	2.1	-57	-74	-16	.	.	.	.
CCCn1c(N)c(C(=O)COC(=O)CNC(=O)c2ccc(C)c(C)c2)c(=O)n(C)c1=O	i	-2.4	.	.	.	0.67	-4%	1.1	.
CNC[C@H]1Oc2ccc(NC(=O)Nc3ccc4c(c3)OCO4)cc2C(=O)N([C@@H](C)CO)C[C@H]1C	i	3.8	2	5	-0.2	.	.	.	.
CCNC(=O)NC(=O)CSc1nc2ccccc2n1CC(C)C	.	.	.	.	.	0.77	-3%	2.4	1
CC(C)NC(=O)Nc1cccc2c1O[C@@H](CN(C)S(=O)(=O)c1ccccc1)[C@@H](C)CN([C@H](C)CO)C2=O	i	0.1	-5	-2	-1.2	.	.	.	.
Cc1c(C#N)c(SCC(N)=O)nc2c1CCCC2	.	.	.	.	.	0.75	26%	-1.0	-5
COC(=O)[C@@]12C[C@@H](CC(=O)N3CCN(C(=O)c4ccco4)CC3)C(=O)N(CCc3ccc(OC)c(OC)c3)C1=CCC(C)(C)C2	i	0.0	5	2	6.0	.	.	0.9	.
COC(=O)C1=C(C)NC(=O)C1(NS(=O)(=O)c1ccc(C)cc1)C(F)(F)F (centres undefined)	i	-1.0	11	20	-2.4	0.7	76%	0.9	-2
COCCNC(=O)c1cc(OC)c(OC)cc1[N+](=O)[O-]	i	-1.9	6	11	-0.1	0.69	0%	3.0	-2
CS(=O)(=O)N1CCN(c2ccc(NC(=O)CSc3nnc(-c4ccco4)o3)cc2)CC1	i	-7.7	5	19	3.0	0.69	.	4.2	9
CCOC(=O)N1CCN(Cc2nc3cc([N+](=O)[O-])ccc3n2CC)CC1	i	-1.6	5	10	4.0	0.68	2%	-0.3	.
COc1cc2c(cc1OC)CN(C(=O)/C=C/c1ccccc1[N+](=O)[O-])CC2	i	3.0	-7	-15	0.5	0.7	.	-2.7	-1
Cc1cc(C)c(OCC(=O)OCC(=O)N(C)C2CCS(=O)(=O)C2)c(C)c1 (centres undefined)	.	-2.5	14	16	2.8	0.66	-11%	2.0	2
O=C(OCC(=O)N(C1CCCCC1)C1CCCCC1)c1cnccn1	.	.	.	.	.	0.74	-7%	2.7	-1
Cc1cc(F)ccc1S(=O)(=O)N1CCCOC1CNC(=O)C(=O)NC1CCCC1 (centres undefined)	i	2.6	19	17	1.5	.	.	-1.6	-4
COc1ccc(/C(C)=N/OCC(=O)N2CC3(C)CC2CC(C)(C)C3)cc1 (centres undefined)	i	7.8	-3	1	5.9	.	5%	-3.0	-1
COc1ccc(OCCCC(=O)Nc2cccc(C(C)=O)c2)cc1	.	.	.	.	.	0.65	16%	-1.5	-6
Cc1ccc(S(=O)(=O)N2CCOCC2)cc1C(=O)Nc1cc(Cl)ccc1N1CCOCC1	i	-5.1	5	11	-3.2	0.68	8%	0.2	.
CCCN1CCN(C(=O)Nc2ccc(OCC)cc2)CC1	i	-3.1	-5	-6	-3.4	0.63	0%	-1.0	-17
COCc1cn(CC[C@@H]2CC[C@H](NC(=O)c3ccncc3)[C@@H](CO)O2)nn1	i	-0.3	2	5	-3.8	.	.	.	.
CCOC(=O)Cn1c2c(c(=N)c3ccccc31)CCC2	.	.	.	.	.	0.7	28%	-1.8	-4
COc1cc2c(c(OC)c1OC)C(=O)CO2	i	-7.4	5	7	0.0	0.67	-1%	-0.5	.
COc1ccc(NC(=O)N[C@H]2CC[C@@H](CCn3cc(C4(O)CCCC4)nn3)O[C@H]2CO)cc1	i	0.1	-2	0	2.7	.	.	.	.
C=Cc1ccc(C2=CC(=O)C[C@H](c3ccc(OC)cc3)C2)cc1	i	0.3	.	.	.	.	.	1.3	2
CN1c2ccc(Br)cc2[C@@H]2[C@@H](CCN2C(=O)C2CCCCC2)[C@H]1CO	i	-0.9	-52	-72	-3.2	.	.	.	.
COc1cc(OC)nc(C(NC(=O)C2CCN(Cc3ccc(Oc4ccccc4)cc3)CC2)c2ccc(F)cc2)n1 (centres undefined)	i	4.3	19	8	3.0	.	.	-3.2	.
CC(C)COc1nc2ccccc2c(=O)n1OCC(=O)O	.	.	.	.	.	0.74	8%	0.4	0
CCOC(=O)c1ccc(NC(=O)N2CC(C)OC(C)C2)cc1 (centres undefined)	.	.	.	.	.	0.74	-4%	-0.2	8
CCCCn1c(CN2CCN(c3cccc(Cl)c3)CC2)nc2c1c(=O)[nH]c(=O)n2C	i	5.4	-9	-5	-0.9	0.65	15%	4.1	11
COc1cccc(/C=N/NC(=O)c2c(-c3ccccc3)noc2C)c1	.	.	.	.	.	.	-3%	-3.1	-7
CCc1nnc(NC(=O)CCC(=O)N2CCN(c3cc(C)ccc3C)CC2)s1	i	1.2	-1	-4	3.6	0.64	.	-3.0	-1
CC(Oc1ccccc1)C(=O)Nc1nc2c(s1)C(=O)CC(C)(C)C2 (centres undefined)	.	.	.	.	.	0.7	15%	-1.0	1
Cc1ccc(C)c(NCCC#N)c1	.	.	.	.	.	0.69	7%	-3.9	2
COc1cc(OC)cc(-c2nc3nc(C)c(CCC(=O)O)c(C)n3n2)c1	.	.	.	.	.	0.75	9%	-0.2	3
O=C(C[C@@H]1C=C[C@@H](NC(=O)c2cccc(F)c2)[C@H](CO)O1)NCc1ccccc1	i	-1.5	1	8	-0.3	.	.	.	.
C[C@H](CO)N1C[C@H](C)[C@@H](CN(C)S(=O)(=O)c2ccc(Cl)cc2)Oc2c(NS(=O)(=O)c3ccc(Cl)cc3)cccc2C1=O	i	2.5	0	-8	4.3	.	.	.	.
CC1(C)CC(=O)c2cnc(N3CCc4ccccc4C3)nc2C1	i	1.6	-3	-6	1.7	0.72	-2%	-1.1	-3
C=CCn1c(CSc2ccc(C)cc2)n[nH]c1=S	i	-7.2	-4	-4	0.8	0.7	.	1.6	10
CCC(=O)N1CCCCN2[C@@H](CO)[C@@H](c3ccc(C#CCOC)cc3)[C@@H]2C1	i	-2.0	-2	-7	-1.2	.	.	.	.

Whole records, quoted from the list:
Profile of O=C(C[C@@H]1C=C[C@@H](NC(=O)c2cccc(F)c2)[C@H](CO)O1)NCc1ccccc1 : FGF22 binding: i; AF4-AF9 inh: -1.5; rRNA inh HTS: 1; rRNA inh HTS OD600: 8; rRNA inh HTS RFP: -0.3; E coli growth: .; Vif TR-FRET: .; HNF4A DNA FP: .; ALR H2O2 inh: .
Profile of COc1ccc(NC(=O)N[C@H]2CC[C@@H](CCn3cc(C4(O)CCCC4)nn3)O[C@H]2CO)cc1 : FGF22 binding: i; AF4-AF9 inh: 0.1; rRNA inh HTS: -2; rRNA inh HTS OD600: 0; rRNA inh HTS RFP: 2.7; E coli growth: .; Vif TR-FRET: .; HNF4A DNA FP: .; ALR H2O2 inh: .

Following part:
SMILES	FGF22 binding	AF4-AF9 inh	rRNA inh HTS	rRNA inh HTS OD600	rRNA inh HTS RFP	E coli growth	Vif TR-FRET	HNF4A DNA FP	ALR H2O2 inh
O=C(Nc1ccccc1F)N1C[C@@H]2[C@H](c3ccccc31)[C@H](CO)N2C(=O)C1CCCC1	i	-12	0	13	-0.7	.	.	.	.
O=C1C(=O)N(CCO)C(c2ccc(Br)cc2)/C1=C(\O)c1ccccc1 (centres undefined)	i	-12	3	4	-1.0	0.61	0%	-0.4	-2
CCCC#Cc1cnc2c(c1)C(=O)N([C@@H](C)CO)C[C@@H](C)[C@H](CN(C)C(=O)Nc1ccccc1OC)O2	i	1.4	2	-1	2.9	.	.	.	.
C[C@@H]1CN([C@@H](C)CO)C(=O)Cc2cc(NC(=O)Nc3ccccc3)ccc2O[C@@H]1CN(C)Cc1ccccc1	i	3.5	0	-9	9.7	.	.	.	.
COc1ccc2c3c(n(C)c2c1)[C@H](CO)N(S(C)(=O)=O)CC31CN(C(=O)c2ccccn2)C1	i	3.0	1	3	-2.8	.	.	.	.
CCN(C)C1CN(Cc2cn(Cc3cccc(C(F)(F)F)c3)nn2)S(=O)(=O)C1 (centres undefined)	i	-1.4	4	8	-5.2	.	.	-3.2	.
O=C(c1ccc(Br)cc1)N1CCCc2ccccc21	i	4.6	-31	-55	-8.8	0.65	5%	-3.4	0
COC(=O)c1ccc(CSc2nnc(NC(=O)C3CCCO3)s2)cc1 (centres undefined)	.	.	.	.	.	0.67	1%	-0.7	31
C[C@@H]1CN([C@@H](C)CO)C(=O)c2cccc(NC(=O)c3nc4ccccc4s3)c2O[C@@H]1CN(C)S(=O)(=O)c1cn(C)cn1	i	-0.5	-4	-9	-1.4	.	.	.	.
C(=NOCCc1ccccc1)c1ccccn1	i	-0.9	3	-3	0.3	0.65	-4%	1.7	.
Cc1ccc(C2SCC(C(=O)O)N2C(=O)c2ccc(F)cc2)cc1 (centres undefined)	.	.	.	.	.	0.68	3%	-3.1	-6
CCN(CC)CCN(C)Cc1ccc(Br)cc1	.	.	.	.	.	0.67	1%	1.6	-11
COc1cccc(S(=O)(=O)N[C@H]2CC[C@@H](CCN)O[C@@H]2CO)c1	i	1.8	0	-2	0.7	.	.	.	.
O=C(COC(=O)c1cc(S(=O)(=O)N2CCOCC2)ccc1Cl)c1ccc[nH]1	i	1.5	-7	-8	6.4	.	.	1.7	.
CC(C)CCNC(=O)c1ccc(NC(=O)C2=CSCCO2)cc1	i	-2.3	-5	-7	-4.8	0.67	.	2.9	-5
C/C(=N\NC(=O)CCCC(=O)O)c1c(-c2ccccc2)c2cc(Cl)ccc2[nH]c1=O	i	0.3	7	1	-2.1	.	25%	0.1	-24
Cc1ccc(S(=O)(=O)N2CCC(C(=O)NNC(=O)c3ccccc3O)CC2)cc1	i	0.7	-2	-7	-1.4	0.73	2%	0.4	-13
CCN(CC(=O)NCc1cccs1)C(=O)c1cccc(S(=O)(=O)N(C)C)c1	i	3.2	8	8	0.1	0.69	4%	2.3	-15
O=C(C[C@@H]1C[C@H]2c3cc(NC(=O)c4cccnc4)ccc3O[C@H]2[C@@H](CO)O1)NCC1CC1	i	-0.7	6	16	-2.4	.	.	.	.
O=C(CCCN1C(=O)S/C(=C\C=C\c2ccccc2)C1=O)Nc1ccc(O)cc1	i	3.1	-10	-19	3.7	0.7	.	1.8	-92
N/C(COc1ncn(-c2ccccc2)n1)=N\S(=O)(=O)c1ccc(Cl)cc1Cl	i	-0.4	6	1	-2.4	.	-5%	3.9	2
C[C@@H]1CCCCO[C@H](CN(C)S(=O)(=O)c2ccc(F)cc2)[C@@H](C)CN([C@H](C)CO)C(=O)c2cc(NC(=O)CCCCCC(=O)Nc3ccccc3N)ccc2O1	i	-3.0	-2	0	0.5	.	.	.	.
CCN=C(Nc1ccc(Cl)cc1)c1cccnc1	.	.	.	.	.	0.66	2%	8.6	-25
Cc1c(-c2ccccc2)c(-c2ccc(OCCN(C)C)cc2)n2ccccc12	i	6.5	6	3	5.3	.	-5%	20	.
CCN1CCN(c2ccc(S(=O)(=O)N3CCCCC3)cc2NC(=O)Cc2ccc(OC)cc2)CC1	i	5.3	-1	0	-0.2	.	.	2.7	-9
O=C(Nc1nnc(-c2ccc3c(c2)OCCO3)o1)c1ccc(Cc2ccccc2)cc1	i	-4.7	-39	-41	-11	0.74	-6%	-0.1	.
COCCn1nnnc1C(C(C)C)N1CCN(C(=O)c2ccco2)CC1 (centres undefined)	.	.	.	.	.	0.73	2%	-1.3	-7
